# D2 PAM: human D2 receptor positive allosteric modulation; potentiation, % (concentration not given with the values); actives 0.23% (n = 360,000); P14416; DiscoveRx D2 beta-arrestin cells, luminescence, 90 min; 100% = 57 uM dopamine signal; active = potentiation of 50% or more; inconclusive = 30% to 50%; inactive = 30% or less;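 also: compound concentration not given in the record; tested on top of an EC20 dose of dopamine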
#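 PathHunter beta-arrestin assay in DiscoveRx D2 cells. Compounds were added with an EC20 of dopamine (50 nM final) for 90 min at 37 deg C. Luminescence was read 1 h after detection reagent, with 57 uM dopamine as the EC100 control.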
# Sfp inh: blocks B. subtilis Sfp PPTase activity; Biochemical Sfp PPTase activity, qHTS; Potency, µM, for the others: max response, negative = inhibition, usual class: inhibitors; actives 3.5% (n = 310,000); AID 1490; active = well fitted inhibition curve with a large enough effect; inconclusive = small, poorly fitted or top-dose-only effect, or another doubt; inactive = no such curve, though single readings can be large or run the other way;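 also: the enzyme is Sfp with the accession as filed and its product quenches rhodamine fluorescence; potency is read from the fitted curve at half-maximal effect; 0% = enzyme reaction without inhibitor and -100% = no enzyme wells; top concentration of the series not given in the record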
#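 Sfp 15 nM + cpd, 15 min RT; start w/ rhodamine-CoA 5 uM, BHQ-2-YbbR 12.5 uM (final); 50 mM Hepes pH 7.6, 10 mM MgCl2, 0.01% NP-40, 0.01% BSA; read 525/598 nm at 0 and 30 min.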
# Six1-Eya2 blk: blocks human Six1 binding to Eya2 | actives 0.56% (n = 360,000) | Q15475+O00167 | activity change, % (no concentration beside the values) | AlphaScreen GST-Six1/His-Eya2 binding, biochemical; stronger effect = lower value; control for the full effect not named in the record; in the data active = activity change below about -65%; inconclusive = about -30% to -65%; inactive = above about -30%; also: % is scaled to controls: 0 for no effect and ±100 for the full control effect; compound concentration not given in the record
#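 AlphaScreen luminescence read after one hour at 37 °C in darkness. Pin-transferred compounds met GST-Six1 and His-Eya2 protein (5X stock 250 nM/500 nM) plus glutathione donor and Ni-chelate acceptor beads (5X, 50 ug/mL).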
# CtBP-E1A inh: CtBP/E1A binding inhibition. AlphaScreen GST-E1A/His-CtBP binding, 1536-well; stronger effect = lower value; control for the full effect not named in the record. activity change, % (test concentration not listed). actives 0.49% (n = 340,000). AID 651724; in the data active means activity change below about -65%; inconclusive means about -30% to -65%; inactive means above about -30%; also: % is scaled to controls: 0 for no effect and ±100 for the full control effect; compound concentration not given in the record
#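 Steps: dispense buffer (Tris pH 8.0, NaCl 300 mM, TCEP 1 mM, BSA, Tween 20); add 5X protein mix (GST-E1A, His-CtBP, 125 nM each); pin 23 nL compound; 2 h at 37 °C, dark; add 5X beads (50 ug/mL); 1 h; read.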
# D2 agonist: activates the human D2 dopamine receptor. P14416. DiscoveRx PathHunter D2 beta-arrestin, luminescence, 90 min; 100% = 57 uM dopamine signal. activation, % (concentration not given with the values). actives 0.084% (n = 360,000); in the data active = activation above about 40%; inconclusive = about 15% to 40%; inactive = below about 15%; also: compound concentration not given in the record; the text of the record calls up to 30% inactive
#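 DiscoveRx PathHunter D2 beta-arrestin cells (2,100/well) attached overnight, then compound-stimulated 90 min at 37 C in HBSS/10 mM HEPES/0.1% Tween-20 buffer; beta-galactosidase complementation read by luminescence after 1 h at ambient temperature. Dopamine 57 uM final (EC100) as control.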
# PINK1 modulator: PINK1 expression modulation; PINK1 immunofluorescence, high-content cytometry, 24 h; Potency, µM (titrated, usually from 76.6 µM), for the others: at the top dose activation (PINK1 increase), most hits filed as activators; actives 0.2% (n = 410,000); AID 624263; active = well fitted activation curve with a large enough effect; inconclusive = small, poorly fitted or top-dose-only effect; inactive = flat fitted curve, though single readings scatter; cell line not stated here;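 also: potency is read from the fitted curve at half-maximal effect; % of control where 0% means no effect; nearly all actives have a fitted effect of over 65% in size; a mitochondrial uncoupler was the plate control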
#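 Decision-based qHTS: stable cells, 24 h exposure to five compound concentrations, CCCP as control. Fixed cells stained for PINK1 plus nuclear, mitochondrial and cell markers, cytometer read.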
# TRPV1 potentiator: potentiators of human vanilloid receptor 1 (TRPV1); Q8NER1; TRPV1-expressing cells, Fluo-8 calcium influx, capsaicin EC20 potentiation; host cell line not named in the record; control for the full effect not named in the record; potentiation, % at 8.33 µM; actives 0.02% (n = 320,000); AID 540277; active means potentiation above 80%; inconclusive means 30% to 80%; inactive means below 30%; also: 0% is about no effect
# Target sequence (Q8NER1 whole entry, looked up): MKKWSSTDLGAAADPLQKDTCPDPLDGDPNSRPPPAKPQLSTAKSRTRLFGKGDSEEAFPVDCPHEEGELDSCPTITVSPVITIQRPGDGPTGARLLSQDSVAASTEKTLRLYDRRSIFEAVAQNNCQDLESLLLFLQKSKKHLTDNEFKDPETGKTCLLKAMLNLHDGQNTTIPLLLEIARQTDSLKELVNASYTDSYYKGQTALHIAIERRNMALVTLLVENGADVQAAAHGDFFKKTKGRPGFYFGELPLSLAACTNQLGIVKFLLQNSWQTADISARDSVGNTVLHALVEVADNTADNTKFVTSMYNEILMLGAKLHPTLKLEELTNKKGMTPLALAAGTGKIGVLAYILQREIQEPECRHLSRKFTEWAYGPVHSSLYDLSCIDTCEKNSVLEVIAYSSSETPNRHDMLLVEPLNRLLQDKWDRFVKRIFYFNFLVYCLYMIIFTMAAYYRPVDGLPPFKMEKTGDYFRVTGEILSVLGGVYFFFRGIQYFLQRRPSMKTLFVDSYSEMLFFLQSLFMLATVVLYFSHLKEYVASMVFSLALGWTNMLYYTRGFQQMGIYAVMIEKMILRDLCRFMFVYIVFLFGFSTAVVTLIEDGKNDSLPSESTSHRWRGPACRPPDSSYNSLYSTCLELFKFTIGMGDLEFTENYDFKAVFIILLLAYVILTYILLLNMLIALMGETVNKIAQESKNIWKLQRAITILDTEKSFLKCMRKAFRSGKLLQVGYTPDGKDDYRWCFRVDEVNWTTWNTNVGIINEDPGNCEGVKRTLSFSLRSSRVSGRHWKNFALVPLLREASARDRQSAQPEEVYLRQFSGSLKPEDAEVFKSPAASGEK
#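 Fluo-8 calcium influx in TRPV1-expressing cells, kinetic read (ex 480/em 520 nm). Compound added and read 3 min for agonist activity, followed by capsaicin at EC20 final and 2 min further read for enhancement.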
# * = called active by the depositor; ? = inconclusive; . = no result given; [ ] = remark or other dose.
No. | Molecule | D2 PAM | Sfp inh | Six1-Eya2 blk | CtBP-E1A inh | D2 agonist | PINK1 modulator | TRPV1 potentiator
1 | CC(C)(C)NC(=O)C(c1cccs1)N(C(=O)c1csnn1)c1ccccc1F (stereo not given) | -12.2 | 8.3% | 0.2 | 10.5 | -0.3 | -0.5% | 2.2
2 | Cc1ccccc1C(=O)OCc1cnc(Cl)s1 | -12.0 | 2.8% | 16.9 | -4.0 | 2.2 | 0.3% | -0.3
3 | COc1ccc(N2CCN(S(=O)(=O)c3cn(C)c(=O)n(C)c3=O)CC2)cc1 | -5.8 | 23.6% | 0.0 | -3.4 | -1.8 | 0.6% | -4.0
4 | CCCS(=O)(=O)NC(=O)C1(C)CCCN(C(=O)c2c(OC)cccc2OC)C1 (stereo not given) | -14.2 | . | 6.9 | -18.5 | -1.4 | -0.7% | .
5 | CC1CCCCN1S(=O)(=O)c1ccc(C(=O)Nc2ccccc2-c2nc3ccccc3[nH]2)cc1 (stereo not given) | -4.4 | 17.2% | 4.8 | 12.1 | 1.0 | -0.3% | 0.7
6 | O=C(NCCS(=O)(=O)N1CCN(c2ccc(F)cc2)CC1)c1ccc(Br)o1 | -10.8 | 22.8% | -0.5 | . | -1.2 | 1.4% | 8.0
7 | CSc1nc(O)c(C(c2ccccc2Cl)c2c(O)nc(SC)[nH]c2=O)c(=O)[nH]1 | -2.2 | . | -17.4 | -8.7 | -1.0 | 0.9% | .
8 | CN(C(=O)c1cccc(NC(=O)Cc2ccc(NC(=O)C3CCCN(S(=O)(=O)c4cccc([N+](=O)[O-])c4)C3)cc2)c1)C1CCCCC1 (stereo not given) | -6.3 | . | -9.5 | -5.2 | 3.4 | 0.4% | .
9 | O=C1OCCN/C1=C\C(=O)c1ccccc1 | -3.3 | 18.5% | 12.5 | 6.4 | -0.7 | 1.2% | 4.3
10 | CN(C)N=Nc1nc2c([nH]1)c(=O)n(C)c(=O)n2C | -3.7 | -7.2% | -2.2 | 4.1 | -6.2 | -1.4% | 7.4
11 | CCOC(=O)C1C(=O)C(=O)N(Cc2ccccc2)C1C(=O)OCC (stereo not given) | -1.0 | . | 2.0 | 1.2 | -5.6 | 0.2% | .
12 | Cc1nnc2ccc(-c3ccc(NS(=O)(=O)c4ccccc4)cc3)nn12 | 22.8 | . | -5.0 | -4.6 | -0.5 | 0.8% | 13.1
13 | COCCNc1nnc(SCC(=O)Nc2cc(-c3ccccc3)nn2-c2ccccc2)s1 | -7.2 | 2.3% | 2.3 | -1.3 | 3.8 | 4.8% | -1.0
14 | CN(CC(=O)Nc1ccc(F)cc1)CC(=O)NC1CCCCC1 | -4.0 | . | 6.4 | . | -3.0 | -0.7% | 16.4
15 | Cc1ccc(-n2ncc3ccccc3c2=O)cc1Cl | 3.7 | 3.5% | -1.2 | . | -2.8 | -1.5% | -6.4

# The closing two entries of the section above lead into the next.
No. | Molecule | D2 PAM | Sfp inh | Six1-Eya2 blk | CtBP-E1A inh | D2 agonist | PINK1 modulator | TRPV1 potentiator
14 | CN(CC(=O)Nc1ccc(F)cc1)CC(=O)NC1CCCCC1 | -4.0 | . | 6.4 | . | -3.0 | -0.7% | 16.4
15 | Cc1ccc(-n2ncc3ccccc3c2=O)cc1Cl | 3.7 | 3.5% | -1.2 | . | -2.8 | -1.5% | -6.4
16 | CC(C)Oc1ccc(S(=O)(=O)N2CCOCC2)cc1NC(=O)c1cccc(S(=O)(=O)N2CCCC2)c1 | -15.0 | . | -12.0 | -3.9 | -3.7 | 5.1% | .
17 | OC1CCN(Cc2ccc3ccccc3c2)CC1 | -13.9 | 7.2% | 0.8 | 9.2 | -1.6 | 1.7% | -6.9
18 | CC(=O)NCCNc1ccc([N+](=O)[O-])cc1C#N | 1.0 | 16.0% | 8.3 | 0.8 | -1.6 | -1.4% | -7.9
19 | CCCCC(=O)N/N=C/c1ccc(N2CCOCC2)c([N+](=O)[O-])c1 | -5.1 | 0.4% | -7.9 | 5.6 | -0.9 | -0.1% | -25.1
20 | Cn1c(CC(=O)Nc2ccccc2F)nnc1SCC(=O)N1CCOCC1 | 13.6 | -4.7% | 1.9 | 10.4 | -1.0 | 0.5% | -7.3
21 | O=C(CCS(=O)(=O)c1ccc(Br)cc1)NC1CCCCCC1 | -5.6 | 2.1% | -18.0 | . | -2.6 | 1.1% | -21.7
22 | Oc1ccc(C2Nc3cccc4cccc(c34)N2)c(O)c1 | 8.3 | -19.8% | -20.3 | -6.6 | 8.5 | 11.6% | 0.2
23 | O=C(NC1CCCC1)C1CC(=O)N(C2CCCCCCC2)C1 (stereo not given) | -4.9 | 7.1% | 3.9 | 4.1 | -0.4 | -4.6%[38.3 µM] | .
24 | O=C(c1ccc(CS(=O)Cc2ccc(Cl)cc2)o1)N1CCN(c2cccc(Cl)c2)CC1 (stereo not given) | -1.6 | -6.4% | -10.4 | -14.9 | 3.1 | -0.3% | ?
25 | Cn1c(N)c(C(=O)N2CCN(c3ccccc3)CC2)c(=O)n(C)c1=O | -0.4 | . | -2.8 | 0.7 | -4.9 | 0.6% | .
26 | O=C1CC(Nc2ccc(N3CCOCC3)cc2)C(=O)N1c1ccccc1F (stereo not given) | 1.7 | 50.1µM* | -4.5 | 0.2 | -5.6 | 1.4% | -5.1
27 | COc1ccc(OC)c2[nH]c(=O)c(CCNC(=O)C3CCCCC3)cc12 | -19.0 | 3.3% | -0.2 | -13.1 | 2.3 | -3.4% | 11.6
28 | O=C(O)c1ccccc1-c1ccccc1C(=O)Nc1cccc2ccccc12 | 4.8 | 21.1% | 1.3 | -3.8 | 0.0 | 2.2% | 9.6
29 | COc1cccc(NC(=O)Cn2cc(C#N)c3ccccc32)c1 | -14.0 | 7.5% | 7.6 | 2.1 | -1.2 | -1.8% | -32.9
30 | O=C(NNC(=O)c1cncc(Br)c1)c1ccncc1 | -5.1 | . | -3.7 | . | -1.3 | -0.3% | 2.4

# Structural class, those above containing an aryl thioether with sulfur outside any ring (3)
No. | Molecule | D2 PAM | Sfp inh | Six1-Eya2 blk | CtBP-E1A inh | D2 agonist | PINK1 modulator | TRPV1 potentiator
7 | CSc1nc(O)c(C(c2ccccc2Cl)c2c(O)nc(SC)[nH]c2=O)c(=O)[nH]1 | -2.2 | . | -17.4 | -8.7 | -1.0 | 0.9% | .
13 | COCCNc1nnc(SCC(=O)Nc2cc(-c3ccccc3)nn2-c2ccccc2)s1 | -7.2 | 2.3% | 2.3 | -1.3 | 3.8 | 4.8% | -1.0
20 | Cn1c(CC(=O)Nc2ccccc2F)nnc1SCC(=O)N1CCOCC1 | 13.6 | -4.7% | 1.9 | 10.4 | -1.0 | 0.5% | -7.3

# (next part)
No. | Molecule | D2 PAM | Sfp inh | Six1-Eya2 blk | CtBP-E1A inh | D2 agonist | PINK1 modulator | TRPV1 potentiator
31 | Cc1nn(-c2ccccc2)cc1/C=N/NC(=O)c1cccs1 | -16.8 | 13.1% | -12.5 | -19.6 | -4.4 | -0.6% | 9.2
32 | CCCCCCC(=O)OCC(=O)c1ccc2c(c1)NC(=O)CO2 | 2.7 | 17.7% | 7.7 | 4.0 | 2.4 | 0.2% | -19.3
33 | O=C(CCC(=O)Nc1ccccc1Cl)NN=C1CCCC1 | 3.8 | 16.1% | 3.0 | 5.0 | -1.8 | -1.3% | -0.9
34 | COc1ccc2nc(-c3cccc(N)c3)[nH]c2c1 | -1.9 | -20.8% | -5.9 | 6.4 | 1.6 | -1.2% | 28.4
35 | O=C(c1ccc(Cn2c(=S)[nH]c3ccc(Br)cc3c2=O)cc1)N1CCN(C2CCCCC2)CC1 | -24.2 | 21.0% | 0.6 | 0.0 | -3.8 | 7.5% | -3.1
36 | O=C(CNC(=S)N(Cc1ccccc1F)C1CCCCC1)NCCCN1CCOCC1 | -3.3 | 8.8% | 1.0 | -3.8 | -2.3 | -2.1% | -2.1
37 | CC(C)(C)N1C(=O)[C@H]2[C@@H](c3ccc(Br)cc3)N3C(=O)N(c4ccc(Br)cc4)C(=O)[C@@]3(Cc3ccccc3)[C@H]2C1=O | -7.2 | 2.6% | -3.9 | -4.3 | -7.1 | 1.0% | -4.1
38 | CCCCCCn1c(C(C)NC(=O)c2ccco2)nc2ccccc21 (stereo not given) | 0.4 | 5.2% | -3.7 | -0.8 | -4.0 | 4.9% | -0.5
39 | Cc1ccccc1CN(C)C(=O)COC(=O)c1ccc2[nH]c(C)c(C)c2c1 | -19.8 | . | -25.4 | -16.0 | 2.6 | 0.1% | .
40 | COCCNC(=O)c1cccc2c(-c3cnn(C)c3)coc12 | -10.0 | . | 2.0 | -13.9 | 6.5 | -1.3% | .
41 | C=CCn1c(=N)n(CC(=O)O)c2ccccc21 | 0.2 | 5.9% | -3.7 | 6.7 | -1.5 | -0.6% | 1.0
42 | CC(=O)Nc1ccc2c(c1)NC(=O)CC2 | -2.8 | 16.4% | 16.8 | -2.8 | 6.5 | 0.0% | 5.9
43 | CCN(CC)S(=O)(=O)c1ccc(NC(=O)COC(=O)CCc2cc(OC)c(OC)c(OC)c2)cc1 | -6.4 | 10.0% | 0.8 | -8.9 | 0.1 | 0.2% | -6.9
44 | O=C(/C=C/c1cccs1)N1CCc2ccccc21 | -11.0 | -0.9% | 1.9 | 1.3 | -3.3 | 2.2% | -4.6
45 | CN(C)c1cc(N/N=C\c2ccccc2)nc(N(C)C)n1 | -6.1 | -1.1% | -23.4 | -13.3 | -5.7 | 11.6% | -1.4
46 | Clc1ccc(CN2CCCCCCC2)cc1 | -31.7 | -6.7% | 0.2 | -11.2 | -5.9 | 4.0% | -0.9
47 | COC(=O)c1cnn(-c2cc(Oc3cccc(C)c3)ncn2)c1N | ? | -2.0% | 10.6 | 10.6 | 0.6 | 15.1% | -0.5
48 | O=C(COC(=O)CCc1c[nH]c2ccccc12)Nc1ccc([N+](=O)[O-])cc1 | -16.8 | 2.0% | -17.6 | -2.6 | -6.8 | 2.9% | -10.1

# Rows were taken by chance; overall some 3.7% were active at least once.
